MARV entry inh: blocks Marburg virus binding to or entry into cells. 1.8% of 300,000 active. Potency, µM (titrated, usually from 37.8 µM), inactives show top-dose activity change, negative = inhibition, actives largely listed as inhibitors. Marburg virus pseudotyped entry inhibition, cell reporter; control for the full effect not named in the record; about a third of the inactives were read at about 46 µM; active = well fitted inhibition curve with a large enough effect; inconclusive = small, poorly fitted or top-dose-only effect, or effect the other way; inactive = flat fitted curve, though single readings scatter; tested in HEK293 cells; about a fifth of its hits are not listed in these tables; further: on the % scale 0 is the no-effect control and ±100 the full control effect; luciferase read-out
2A StopGo: lowers the luciferase signal of an FMDV 2A StopGo reporter | human cells with a luciferase reporter of 2A StopGo recoding; control for the full effect not named in the record | Potency, µM (titrated, usually from 57.9 µM), for inactives: at the top dose signal change, negative = less light | 1.2% of 410,000 active | AID 1159524; active = well fitted falling curve with a large enough effect; inconclusive = small, poorly fitted or top-dose-only effect; inactive = no such curve, though single readings can be large or run the other way; tested in HEK293T cells; further: on the % scale 0 is the no-effect control and ±100 the full control effect; nearly all actives have a fitted effect of over 45% in size; luciferase light after 4 h
NS1 inh: blocks influenza NS1 protein function | S. cerevisiae slowed by influenza A NS1, growth recovery by OD600 | 0.4% of 270,000 active | AID 2326 | Potency, µM (titrated, usually from 46.1 µM), without a hit: top-dose activity, positive = more growth; further: actives are rising curves; nearly all actives have a fitted effect of over 50% in size
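Compounds were scored for reversing the slow growth caused by influenza A NS1 in S. cerevisiae, measured by optical density at 600 nm. Assay medium contained 2% galactose at pH 6.0; NS1-free yeast of the same strain were the positive control.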
SARS PLP yeast: inhibitors of SARS-CoV papain-like protease in yeast; S. cerevisiae expressing SARS-CoV PLpro, growth rescue; control for the full effect not named in the record; Potency, µM (doses to about 32.9 µM), for the others: at the highest dose activity, positive = growth rescue; 0.19% of 330,000 active; AID 485353; further: 0% is about no effect; nearly all actives have a fitted effect of over 55% in size; growth read by luminescence after 48 h
Cruzain inh Det: blocks cruzain activity in presence of Triton detergent | P25779 | purified cruzain, Z-FR-AMC fluorescence, 0.01% Triton | Potency, µM, inactives show max response, negative = inhibition, hits mostly inhibitors | 0.43% of 200,000 active | AID 1478; active means well fitted curve in the direction sought with a large enough effect; inconclusive means small, poorly fitted or top-dose-only effect, or another doubt; inactive means no such curve, though single readings can be large; an effect the other way counts as inactive or inconclusive;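 further: plate controls were neutral wells for no effect and buffer without enzyme for full effect; nearly all actives have a fitted effect of over 40% in size; top concentration of the series not given in the record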
Target sequence (P25779 123-467 limits assumed): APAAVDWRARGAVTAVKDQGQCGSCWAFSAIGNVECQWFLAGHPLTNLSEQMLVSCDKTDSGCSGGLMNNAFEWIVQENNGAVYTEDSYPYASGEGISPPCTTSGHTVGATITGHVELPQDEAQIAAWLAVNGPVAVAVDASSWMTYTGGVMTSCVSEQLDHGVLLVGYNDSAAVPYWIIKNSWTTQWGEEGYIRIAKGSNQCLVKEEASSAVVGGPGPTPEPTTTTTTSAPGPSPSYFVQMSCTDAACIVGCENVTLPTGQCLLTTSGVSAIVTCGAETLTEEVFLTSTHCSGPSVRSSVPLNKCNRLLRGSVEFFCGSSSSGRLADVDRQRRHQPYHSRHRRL
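Detergent-containing arm of a paired screen for aggregation-based inhibition: 0.01% Triton X-100 present. Cruzain at 1.5 nM cleaved 2 uM Z-FR-AMC at pH 5.5 with 5 mM DTT; AMC fluorescence gain over 60 s measured activity.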
Lassa entry inh: blocks Lassa virus binding to or entry into cells; Lassa virus pseudotype entry inhibition, cell reporter; control for the full effect not named in the record; Potency, µM (titrated, usually from 37.9 µM), without a hit: top-dose activity change, negative = inhibition, usual class: inhibitors; 1.2% of 300,000 active; active means well fitted inhibition curve with a large enough effect; inconclusive means small, poorly fitted or top-dose-only effect, or effect the other way; inactive means flat fitted curve, though single readings scatter; tested in HEK293 cells; further: on the % scale 0 is the no-effect control and ±100 the full control effect; nearly all actives have a fitted effect of over 50% in size; luciferase read-out
RE007 growth inh: less growth of the S. pombe RE007 Vpr strain; S. pombe RE007 Vpr strain, BacTiter-Glo ATP luminescence, 24 h; control for the full effect not named in the record; Potency, µM (titrated, usually from 92.2 µM), for the others: top-dose activity change, negative = less growth; 0.21% of 360,000 active; active = well fitted falling curve with a large enough effect; inconclusive = small, poorly fitted or top-dose-only effect; inactive = no such curve, though single readings can be large or run the other way;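 further: on the % scale 0 is the no-effect control and ±100 the full control effect; nearly all actives have a fitted effect of over 50% in size; the assay follows cell death caused by Vpr and the record does not say whether a fall means rescue or toxicity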
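Fission yeast strain RE007, carrying one chromosomally integrated HIV-1 vpr copy, was seeded at OD 0.01 in PMG+AL medium with 23 nL pinned compound. After 24 h at 30 °C and 99% humidity, viability was read by BacTiter-Glo luminescence.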
Cruzain noTriton: cruzain (T. cruzi) inhibition without detergent | 2.3% of 200,000 active | Potency, µM, for inactives: max response, negative = inhibition, usual class: inhibitors | purified cruzain, Z-FR-AMC fluorescence, no detergent | P25779; active means well fitted curve in the direction sought with a large enough effect; inconclusive means small, poorly fitted or top-dose-only effect, or another doubt; inactive means no such curve, though single readings can be large; an effect the other way counts as inactive or inconclusive;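 further: plate controls were enzyme without inhibitor for no effect and buffer without enzyme for full effect; nearly all actives have a fitted effect of over 40% in size; top concentration of the series not given in the record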
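Purified cruzain at 1.5 nM, pre-incubated 15 min with compound at room temperature in 100 mM sodium acetate pH 5.5, 5 mM DTT, 0.00005% Triton X-100. Reaction started with 2 uM Z-FR-AMC; AMC fluorescence increase over 60 s gives rate.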
* marks the source's active call; other numbers are inactive results; ? = inconclusive; / = no result given; [ ] = dose if it differs, or a comment. Unless noted, the call rests on the fitted dose curve; in most records, active means well fitted rising curve with a large enough effect; inconclusive means small, poorly fitted or top-dose-only effect; inactive means no such curve, though single readings can be large or run the other way. Potency means the concentration at half of the fitted maximal effect. This is a random part of the collection; 4.7% or so of the library scored in one or more.

SMILES	MARV entry inh	2A StopGo	NS1 inh	SARS PLP yeast	Cruzain inh Det	Lassa entry inh	RE007 growth inh	Cruzain noTriton
Cc1cc(OCC(=O)NCCc2c[nH]c3ccccc23)c2c(C)c(C)c(=O)oc2c1	/	-14%	14%	-3%	/	/	-13%	/
C/C(=C\c1ccco1)C1C(C#N)=C(N)Oc2n[nH]c(-c3ccccc3)c21 (stereo not drawn)	-8%	0%	12%	2%	-17%	5%	-14%	10%
CC(=O)c1ccc(S(=O)(=O)NCC(=O)N2CCN(C/C=C/c3ccccc3)CC2)cc1	?	?	/	1%	/	?	21%	/
CCn1nc([N+](=O)[O-])c(C(C#N)c2nc3cc(C(F)(F)F)ccc3s2)c(Cl)c1=O (stereo not drawn)	-19%	2µM*	13%	-38%	22µM*	10%	-18%	?
CC(OC(=O)CNC(=O)c1ccc(Cl)c([N+](=O)[O-])c1)C(=O)NCc1ccco1 (stereo not drawn)	2%[46.1 µM]	-11%	/	2%	/	-5%	8%	/
CC(COS(N)(=O)=O)Cc1ccc(C(F)(F)F)cc1 (stereo not drawn)	/	-27%	0%	3%	/	/	-11%	/
CCCCCN(C(=O)NC(=O)NCCCC)S(C)(=O)=O	18%	/	9%	6%	0.4%	0%	11%	-11%
O=C(Nc1cccnc1)c1cc(-c2ccccc2O)on1	/	61%[activator]	-3%	1%	/	/	12%	/
Cc1ccc(NC(=O)c2ccc(OCc3c(C)noc3C)cc2)cc1C	10µM*	32µM*	/	-4%	/	?	-3%	/
COc1ccc(/C=C2/Sc3ccc(C(=O)N4CCc5ccccc5C4)cc3NC2=O)cc1	?	-16%	7%	7%	-3.1%	-1%	4%	?
Cc1[nH]n(-c2ccccc2)c(=O)c1C(C[N+](=O)[O-])c1ccc(Cl)cc1 (stereo not drawn)	-11%	?	-32%	-62%	-8.6%	-17%	28µM*	4%
Cc1ccccc1NC(=O)NC(C)(C)CC(C)(C)C	/	-10%	-4%	-1%	/	/	1%	/
CCOC(=O)COn1c(=O)c(-c2ccc(C)cc2)[n+]([O-])c2ccccc21	/	37%[activator]	2%	2%	/	/	-13%	/
COc1ccc(/C=C/C(=O)c2c(O)ccc3c(C)cc(=O)oc23)cc1	/	-25%	6%	27%	-10%	/	16%	-5%
COc1cc(NC(=S)NCCCN2CCOCC2)cc(OC)c1OC	?	-21%	5%	0%	/	-1%[46.1 µM]	11%	/
CCOc1ncccc1C(=O)OCc1ccc(C(=O)OC)cc1	?	14%	-29%	-17%	-8.3%	-18%	-13%	5%
NC(=O)C1CCN(C(=O)CC(c2ccccc2)c2ccccc2)CC1	6%[46.1 µM]	1%	-9%	2%	/	1%[46.1 µM]	3%	/
O=C(COc1ccc(Cl)cc1)OCc1cc(=O)n2nc(C3CCCCC3)sc2n1	/	-4%	/	/	-3.4%	?	/	11%
COC(=O)c1c(NC(=O)CSc2nncs2)sc2c1CCCCC2	?	/	-48%	2%	-7.4%	-27%	2%	0%
O=C(Nc1ccccc1)c1ccc(-c2ccccc2)s1	?	55%[activator]	/	-1%	/	/	0%	/
CS(=O)(=O)NCCCCNc1ccc(C(F)(F)F)cc1[N+](=O)[O-]	?	0%	5%	0%	/	1%	17%	/
O=C(NCCN1CCN(c2ccccc2)CC1)Nc1ccc(Cl)cc1	20%	-28%	0%	0%	/	?	-7%	/
O=C(NCCn1cccc1)c1cccc2ccccc12	15%	27%	6%	-1%	-1.3%	-2%	-9%	-21%
CCOC(=O)c1c(C)[nH]c(C)c1S(=O)(=O)NCC(=O)Nc1cccc(C(F)(F)F)c1	/	16%	/	/	-5.5%	9%[46.1 µM]	/	4%
O=C(c1ccc2c(c1)N(Cc1ccc(F)cc1)C(=O)c1ccccc1S2(=O)=O)N1CCN(Cc2ccccc2)CC1	?	-14%	/	/	-1.2%	?	/	?
Cc1ccc(C23CC4CC(CC(NC(=O)NCCN(C)C)(C4)C2)C3)cc1	?	-26%	6%	0%	2.9%	?	-7%	2%
COc1ccccc1-c1noc(CCCC(=O)Nc2ccc(C(N)=O)cc2)n1	/	-15%	-4%	2%	/	/	2%	/
Cc1ccc(N/N=C/C=C/c2ccco2)cc1	-19%	29%	/	/	/	?	-9%	/
CCCC(=O)Nc1ccc(S(=O)(=O)N2CCC(c3nc4ccccc4[nH]3)CC2)cc1	2%	?	/	-5%	/	1%	-28%	/
CCOc1ccc(/C(O)=C2\C(=O)C(=O)N(CCOCCO)C2c2ccccc2OC)cc1 (stereo not drawn)	15%	17%	-1%	-5%	-1.5%	-8%	18%	-8%
O=C(COc1ccc2c(c1)OCO2)Nc1ccc2c(c1)oc1ccccc12	?	0%	-13%	-3%	-1.1%	?	-1%	10µM*
COc1cc(N2C(=O)CC3(CCCC3)CC2=O)cc(OC)c1OC	0%	-3%	6%	-2%	/	6%	2%	/
CCn1cc(CNCc2cn(C)nc2-c2ccc(C3CCCCC3)cc2)cn1	?	54%[activator]	1%	0%	/	?	-23%	/
COC(=O)Nc1ccc(S(=O)(=O)N2CCC(C(=O)N3CCCCC3C)CC2)cc1 (stereo not drawn)	?	-1%	/	-2%	/	2%	0%	/
CC(C)n1nc(C(=O)Nc2nc3ccccc3[nH]2)c2ccccc2c1=O	?	-16%	/	-1%	/	?	-29%	/
Cc1ccccc1CNC(=O)Cn1cnc(S(=O)(=O)N2CCCC2)c1	/	20%	11%	2%	/	/	-5%	/
Cc1ccccc1-c1noc(C2CCCCC2)n1	7%	23%	-3%	4%	2.3%	13%	-23%	8%
S=c1[nH]nc(CSCCOc2ccccc2)o1	-4%[46.1 µM]	39%[activator]	-1%	0%	/	20%	-14%	/
Oc1cc2c(cc1CN1CCN(c3ncccn3)CC1)OCO2	3%[46.1 µM]	0%	-10%	-8%	/	19%[46.1 µM]	2%	/
CC1CN(CC(=O)Nc2ccc([N+](=O)[O-])cc2Br)CC(C)O1 (stereo not drawn)	-2%[46.1 µM]	-10%	/	2%	/	-4%[46.1 µM]	8%	/
COc1ccc(-c2csc3ncnc(N4CCN(c5ccccc5OC)CC4)c23)cc1	?	?	-24%	-5%	/	?	-9%	/
COc1cc(C)nc(NC(=S)N(C)C(=O)c2ccccc2)n1	-3%[46.1 µM]	-5%	-2%	0%	/	-3%[46.1 µM]	1%	/
O=C(COc1ncnc2cc([N+](=O)[O-])ccc12)N(CCc1ccccc1)Cc1ccccc1	-4%	?	16%	-2%	-2.0%	1%	9%	-1%
CCOC(=O)c1cc2ccccc2n1CC(=O)c1ccccc1	10%[46.1 µM]	-6%	0%	-1%	/	-13%[46.1 µM]	-16%	/
COc1ccccc1C(=O)Nc1ccnn1C1CCN(C)CC1	/	5%	9%	3%	/	/	-14%	/
CCCNC(=O)C1CC(=O)N(c2ccc(OCC)cc2)C1 (stereo not drawn)	-8%[46.1 µM]	14%	/	-3%	/	0%[46.1 µM]	13%	/
CS(=O)(=O)N(CC(=O)N1CCCC1)c1cccc(Cl)c1	5%	2%	-13%	0%	4.3%	-5%	0%	-5%
O=C(CN(c1ccc(Br)cc1)S(=O)(=O)c1ccc(Cl)c([N+](=O)[O-])c1)NCC1CCCO1 (stereo not drawn)	?	?	/	/	/	?	-8%	/

An excerpt of these results, bar-delimited.
SMILES | MARV entry inh | 2A StopGo | NS1 inh | SARS PLP yeast | Cruzain inh Det | Lassa entry inh | RE007 growth inh | Cruzain noTriton
O=C(COc1ncnc2cc([N+](=O)[O-])ccc12)N(CCc1ccccc1)Cc1ccccc1 | -4% | ? | 16% | -2% | -2.0% | 1% | 9% | -1%
CCOC(=O)c1cc2ccccc2n1CC(=O)c1ccccc1 | 10%[46.1 µM] | -6% | 0% | -1% | / | -13%[46.1 µM] | -16% | /
COc1ccccc1C(=O)Nc1ccnn1C1CCN(C)CC1 | / | 5% | 9% | 3% | / | / | -14% | /
CCCNC(=O)C1CC(=O)N(c2ccc(OCC)cc2)C1 (stereo not drawn) | -8%[46.1 µM] | 14% | / | -3% | / | 0%[46.1 µM] | 13% | /
CS(=O)(=O)N(CC(=O)N1CCCC1)c1cccc(Cl)c1 | 5% | 2% | -13% | 0% | 4.3% | -5% | 0% | -5%

(cont.)
SMILES	MARV entry inh	2A StopGo	NS1 inh	SARS PLP yeast	Cruzain inh Det	Lassa entry inh	RE007 growth inh	Cruzain noTriton
CCC(=NCc1cccnc1)c1c(O)n(C2CCCCC2)c(=O)[nH]c1=O	-9%	?	-35%	-7%	-4.1%	-29%	4%	-5%
COc1ccc(/C(C)=N/NC(=O)c2nc(C)cc(C)n2)cc1	0%[46.1 µM]	62%[activator]	6%	-6%	-3.0%	17%	-10%	3%
COc1ccc(N=C2S/C(=C\c3ccc(N4CCOCC4)o3)C(=O)N2CCc2c[nH]c3ccccc23)cc1	/	/	17%	-17%	-7.4%	/	/	16%
FC(F)(F)c1ccc2c(c1)nc1n2CCCC1	-2%	-2%	-174%	-47%	0.2%	0%	-28%	4%
COc1ccccc1CN1C2CCCC1CC(NC(=O)/C=C/c1ccccc1)C2 (stereo not drawn)	?	-10%	2%	0%	/	-25%	-3%	/
N#Cc1cc(-c2ccccc2)cnc1Cl	10%	-4%	6%	3%	-2.7%	-1%	0%	-3%
C=CCNC(=O)C1=NOC(CNC(=O)c2c(-c3ccccc3Cl)noc2C)C1 (stereo not drawn)	?	-5%	4%	1%	1.1%	2%	7%	0%
O=C(Nc1cccc(O)c1)N1CCOCC1	9%	11%	10%	1%	2.0%	-7%	6%	1%
Cc1ccc(C)c(S(=O)(=O)Nc2nc(C)c(C(=O)Nc3ccccc3)s2)c1	4%	62%[activator]	-1%	17%	-10%	18%	/	14%
CCOC(=O)c1cc2cc3ccccc3cc2oc1=O	/	0%	-26%	-4%	/	/	-26%	/
O=C1c2ccccc2S(=O)(=O)N1CC(O)Cn1c2ccccc2c2ccccc21 (stereo not drawn)	1%	?	-97%	-14%	-6.6%	?	-10%	?

Source: PubChem (National Center for Advancing Translational Sciences (NCATS))
